Source: PubChem (National Center for Advancing Translational Sciences (NCATS))
NPR1 antag: Natriuretic polypeptide receptor (hNpr1) antagonism - Primary qHTS | 76,000 tested, 1.6% active | Potency, µM (top dose mostly 46.3 µM), without a hit: top-dose activity change, negative = inhibition, usual class: inhibitors | Atrial natriuretic peptide receptor 1 (Homo sapiens), P16066 | HEK293 hNpr1 GloSensor cGMP, ANP-stimulated luminescence | AID 1347048, 2019; active = well fitted inhibition curve with a large enough effect; inconclusive = small, poorly fitted or top-dose-only effect; inactive = no such curve, though single readings can be large or run the other way;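 further: nearly all actives have a fitted effect of over 60% in size; nearly all hits also lower the signal before the agonist is added; a reference antagonist and vehicle were the controls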
Target sequence (P16066 whole entry, looked up): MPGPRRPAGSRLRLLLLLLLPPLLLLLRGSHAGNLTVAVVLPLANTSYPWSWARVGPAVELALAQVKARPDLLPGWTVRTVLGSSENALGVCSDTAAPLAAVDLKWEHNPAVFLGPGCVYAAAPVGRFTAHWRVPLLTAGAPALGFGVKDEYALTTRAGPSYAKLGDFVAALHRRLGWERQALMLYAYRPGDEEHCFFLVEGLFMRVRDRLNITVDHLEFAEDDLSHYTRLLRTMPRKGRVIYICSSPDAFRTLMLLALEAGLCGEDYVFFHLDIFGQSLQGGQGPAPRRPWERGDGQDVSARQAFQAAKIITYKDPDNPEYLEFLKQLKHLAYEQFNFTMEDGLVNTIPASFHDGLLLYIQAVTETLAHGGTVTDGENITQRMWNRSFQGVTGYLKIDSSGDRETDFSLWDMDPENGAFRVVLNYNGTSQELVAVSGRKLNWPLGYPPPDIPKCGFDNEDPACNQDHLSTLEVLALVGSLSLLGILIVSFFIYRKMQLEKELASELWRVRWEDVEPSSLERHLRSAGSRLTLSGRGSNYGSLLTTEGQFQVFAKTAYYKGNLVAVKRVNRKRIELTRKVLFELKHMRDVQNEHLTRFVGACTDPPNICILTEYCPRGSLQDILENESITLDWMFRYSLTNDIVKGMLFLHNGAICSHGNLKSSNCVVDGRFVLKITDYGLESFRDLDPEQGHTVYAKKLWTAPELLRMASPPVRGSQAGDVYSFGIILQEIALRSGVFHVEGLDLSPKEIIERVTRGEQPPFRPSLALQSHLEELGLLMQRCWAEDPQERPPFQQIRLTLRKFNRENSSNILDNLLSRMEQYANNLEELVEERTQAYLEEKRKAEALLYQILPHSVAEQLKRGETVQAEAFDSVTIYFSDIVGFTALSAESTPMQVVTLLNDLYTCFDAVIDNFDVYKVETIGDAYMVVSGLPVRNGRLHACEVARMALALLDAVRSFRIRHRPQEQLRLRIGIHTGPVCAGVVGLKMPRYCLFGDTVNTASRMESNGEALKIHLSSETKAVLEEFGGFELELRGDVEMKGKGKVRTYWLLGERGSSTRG
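HEK293 cells stably expressing human Npr1 and cGMP GloSensor pGS-40F, loaded 2 h with 2% GloSensor reagent, given compound 30 min at room temperature. Luminescence read before and 20 min after 0.1 nM hNppA.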
* marks the source's active call; other numbers are inactive results; ? = inconclusive; [ ] = another dose, or the depositor's remark. On the % scale 0 is the no-effect control and ±100 the full control effect; potency means the concentration at half of the fitted maximal effect. Only part of the results is shown; rates above refer to the full screens.

SMILES	NPR1 antag
Cc1nc(=O)[nH]c(C)c1CCC(=O)N[C@H](c1ccccn1)C1CC(O)C1 (some centres undefined)	-2%
O=C(c1ccc[nH]1)N1CCC(n2cc(-c3nc(C4CC4)no3)nn2)C1 (centres undefined)	-16%
CN(C)C(=O)CCC[C@H]1NC[C@@H]2C[C@H]1CN(Cc1ccccc1)C2	-2%
O=C(O)CCn1ncc2cc(OCc3ccc(-c4cccc(CO)c4)cc3)ccc21	-5%[70.6 µM]
CCCCN1C(=O)[C@@H]2C[C@@H](O)CN2C2(CN(Cc3ccoc3)C2)C1=O	1%[70.6 µM]
CC(C)c1ccc(CNC(=O)c2ccc(CN3C(=O)NC4(CCOCC4)C3=O)cc2)cc1	7.1µM*
O=C(COc1ccccc1)N1CC[C@H]2COC(=O)N2c2cc(F)ccc2C1	1%[70.6 µM]
c1c(CN2CCCN(CCCN3CCCC3)CC2)nn2c1CNCC2	-1%
COc1ccc(-n2nc(C3CCCN(C(=O)c4cccc(Cl)c4)C3)[nH]c2=O)cc1 (centres undefined)	-1%
Cc1cc2nc3n(c(=O)c2n1CC(=O)Nc1cccc(Cl)c1)CCCC3	-1%
CN(Cc1ccc(N2CCOCC2)cc1)C(=O)[C@H]1CN(Cc2ccccc2)C[C@H]1C(=O)O	-9%
O=S(=O)(N[C@H]1[C@H](O)[C@H](O)C[C@@H]1c1ccc(C(F)(F)F)cc1)c1ccc(F)cc1	-30%[70.6 µM]
CC(C)c1cc(C2CCCN2CCC(=O)Nc2ccc(C(N)=O)cc2)no1 (centres undefined)	-3%
Cc1ccc(S(=O)(=O)N(C)C2CCOc3ccccc32)cc1 (centres undefined)	-3%[70.6 µM]
COc1ccc(NC(=O)N2Cc3[nH]cnc3C[C@H]2c2nc(-c3ccc(C(F)(F)F)cc3)no2)cc1	-4%

Ordered by molar mass (largest number first): part of the list above
SMILES	NPR1 antag
COc1ccc(NC(=O)N2Cc3[nH]cnc3C[C@H]2c2nc(-c3ccc(C(F)(F)F)cc3)no2)cc1	-4%
O=S(=O)(N[C@H]1[C@H](O)[C@H](O)C[C@@H]1c1ccc(C(F)(F)F)cc1)c1ccc(F)cc1	-30%[70.6 µM]
O=C(c1ccc[nH]1)N1CCC(n2cc(-c3nc(C4CC4)no3)nn2)C1 (centres undefined)	-16%

Going on with the list.
SMILES	NPR1 antag
CS(=O)(=O)N1C[C@H]2CCN(C(=O)c3cc(F)ccc3F)C[C@H]21	4%
Cc1cc(C(=O)NC2CC(c3nnc(CN(C)C)n3C)C2)c2c(C)noc2n1 (centres undefined)	10%
Cc1ccc(C(=O)NC2CCN(c3cc(C(F)(F)F)ncn3)CC2)cc1	-30%
O=C(NCc1ccccc1)N[C@H]1CO[C@H]2[C@@H]1OC[C@@H]2n1cc(-c2ccccn2)nn1	2%[70.6 µM]
COCCCNC(=O)c1ccc2c(c1)CC(=O)N2Cc1ccccc1	-14%
Cc1noc([C@@H]2CN(CC3CCCCC3)C[C@H]2CO)n1	0%
Cc1cc2nc3n(c(=O)c2n1CC(=O)Nc1cccc(C(F)(F)F)c1)CCCCC3	-23%
O=C(NC1CCCN(c2cc(-c3ccc(Cl)cc3)[nH]n2)C1)c1ccc(Br)o1 (centres undefined)	-25%
CCOC(=O)CC1CCCCN1S(=O)(=O)c1cc(F)ccc1F (centres undefined)	4%
O=C(C[C@H]1NC(=O)c2ccccc2NC1=O)NCCn1cnc2ccccc21	-1%
COCCCNC(=O)c1ccc(CN2C(=O)NC3(CCS(=O)(=O)CC3)C2=O)cc1	0%
CN(CCc1ccccc1)[C@@H]1[C@H](O)[C@H](CO)O[C@@H]1CNS(=O)(=O)c1cccs1	4%
CCS(=O)(=O)N1CC[C@H]2C(=O)NCCCCCCN(Cc3ccncc3)[C@@H]2C1	6%
O=C1CN(C(=O)C2CCN(c3nc(-c4ccccc4)nc4c3CCC4)CC2)CCN1	0%
Cc1ccc(S(=O)(=O)N2CCCC(Cn3cnc4cccnc43)C2)c(C)c1 (centres undefined)	-22%
Cc1cc(F)ccc1OCC(=O)c1ccc2c(c1)N(C(C)C(=O)NCc1ccc(F)cc1)C(=O)CO2 (centres undefined)	-9%
CN1C(=O)COc2ccc(C(=O)N3CC(C)(C)[C@@](C)(O)C3)cc21	10%
COc1ccccc1[C@@H]1CN(C(=O)CN2CCOCC2)C[C@H]1C(=O)O	3%
CCOCC(=O)N1Cc2ccccc2OC2(CCN(C(C)C)CC2)C1	-5%
Cc1cccc(CN2CCOc3c(O)cc(-c4ccccc4C)cc3C2)n1	-2%
COc1ccc(C(=O)N2C[C@@H]3C[C@H](C2)c2c(NS(=O)(=O)c4cccs4)ccc(=O)n2C3)cc1	2%
Cc1cncc(C(=O)N[C@@H]2CN(S(C)(=O)=O)C[C@H]2CN(C)C)c1	5%
O=C(NC[C@H]1Cn2c(-c3ccccc3)cnc2CO1)C1CCOCC1	0%[70.6 µM]
COCCNc1ncc(-c2cccc(N[S+](C)(=O)[O-])c2)c2c1OCC2	3%[70.6 µM]
COCCn1ncc(N2CCCC(CC(=O)NCc3ccc(C)o3)C2)cc1=O (centres undefined)	1%
COc1ccc(C(=O)N[C@@H]2CCC[C@@H]2C(=O)NCc2ccc(C(F)(F)F)cc2)cc1	1%
O=C(Cc1ccsc1)Nc1cnc(-c2ccccc2)nc1	?
COCCn1c(C)nnc1-c1cc(-c2ccccc2Oc2ccccc2)ccn1	-7%[70.6 µM]
Cn1nccc1C(=O)N1CCCN(CCc2ccccc2)c2ccccc21	?
CCN1c2cc(C(=O)N3CCN(c4ccccc4F)CC3)ccc2C(=O)N2CCCCC21 (centres undefined)	0%
Cc1nc(N2CCC(C(=O)NCCc3cccs3)CC2)cc(C(F)(F)F)n1	-20%
CCN1C(=O)CCN(C(=O)NCC(C)C)CC12CCOCC2	1%
CC1=C[C@@H](CNC(=O)C(C)(C)C)[C@H](C(C)C)C[C@H]1CC(=O)N(C)Cc1cccnc1	-8%[70.6 µM]
Cc1nc(C)n(CCCn2ccnc2-c2cc3n(n2)CCCNC3)n1	3%
COc1cc(NC(=O)Cn2nc3n(c2=O)CCCCC3)cc(OC)c1	-11%
O=C(Nc1ccccc1)N1CCC(c2nn(-c3ccc(Cl)cc3)c(=O)[nH]2)CC1	-5%
CCOCCn1c(=O)[nH]c2cc(C(=O)NCCn3cnnc3)ccc21	5%
c1ccc(-c2cnc(Nc3cccnc3)c3c2CCO3)cc1	-3%[70.6 µM]
COc1ccc(NC(=O)C2=NO[C@@H]3CN(Cc4ccc(F)cc4)C[C@H]23)cn1	5%[70.6 µM]
CN1CCN(c2ccc(-c3cc4c(ccn4C)c(C(=O)NCCN4CCNC4=O)n3)cc2)CC1	6%
COc1ccccc1N1CCCc2ncc(C(=O)N(C)Cc3ccccc3)cc21	3%[70.6 µM]
Cc1nccn1CCCC(=O)NC1CC(c2nnc(CO)n2C2CC2)C1 (centres undefined)	-5%
C#CCNC(=O)C[C@@H]1c2nc(NC(=O)N3CCOCC3)sc2C[C@@H]2[C@](C)(CO)[C@H](O)CC[C@]21C	-7%
CC(=O)Nc1ccc(CN2CCCC(N3CCN(c4ccccc4)CC3)C2)cc1 (centres undefined)	-6%
Cn1ccnc1CN1CCOC[C@H](Oc2ccc(C(F)(F)F)cc2)C1	-20%[70.6 µM]
CCc1nncn1C1CCN(C(=O)Nc2ccc(Cl)cc2F)C1 (centres undefined)	-2%
O=C1CCC2(CCN(C(=O)C3CCc4ccccc43)CC2)CN1CCO (centres undefined)	0%
CN(Cc1ccc(-c2ccccc2)cc1)C(=O)Cc1cccc(Cl)c1	?
COC(=O)c1c(NC(C)=O)c2cc(NC3CCCCCC3)cnc2n1CC1CCCO1 (centres undefined)	3%
O=C(CCN1CCCCO1)NC1CCCc2nc(-c3ccccc3)ncc21 (centres undefined)	0%
CC1(CCCCc2ccccc2)COc2ccc(C(=O)N3CC(O)C3)cc2N1 (centres undefined)	35µM*
COc1cccc(NC(=O)N[C@H]2CCN(C(=O)c3cccn3C)[C@@H]2C(=O)N[C@@H](Cc2cccs2)C(N)=O)c1	0%
COc1ccc(CNC(=O)c2cc(-c3ccc(F)cc3)cc3ncn(C)c23)cc1OC	4%[70.6 µM]
O=C1NC(C(=O)NCc2ccc(OC(F)(F)F)cc2)Cn2cccc21 (centres undefined)	2%
CCCNC(=O)N1CCCC2(CCC(=O)N(Cc3cnc(C)cn3)C2)C1 (centres undefined)	-1%
COCCC(=O)N1Cc2ccccc2OC2(CCN(C(C)C)CC2)C1	-1%
O=C(CC1=C2CCCCC2N(Cc2ccc(F)cc2)C1=O)NC1CCS(=O)(=O)C1 (centres undefined)	0%
N#Cc1ccc(C(=O)N2CCC[C@H]2c2nc(-c3ccccc3)no2)cc1	-10%
COc1ccc(NC(=O)c2ccc3c(c2)OCCN(CCC(F)(F)F)C3)c(F)c1	-1%[70.6 µM]
CN(C)C(=O)c1n[nH]c2c1CN(C(=O)c1ccc(F)c(F)c1)CC2	2%

(more compounds)
SMILES	NPR1 antag
COCCOc1ccc2c(n1)CCN(C(=O)Cc1ccc(OC)cc1)C2	3%
Cc1ccc(C(=O)NC2CCN(c3nc4ncccc4o3)CC2)cc1	5%[70.6 µM]
Cn1cc(CNc2ccc(-c3nc(CCCc4ccccc4)no3)cn2)cn1	?
COc1ccc(-n2nc(C)c([C@@H]3C=C[C@@H](NCc4ccc(F)cc4)C3)c2C)cc1	?
COCC(=O)N1CCCC(C(=O)NCc2ccc(F)cc2Cl)C1 (centres undefined)	4%
CCn1cc(S(=O)(=O)N2CCCOCCNC(=O)[C@@H]3CCC[C@@H]32)cn1	0%
CN(C)S(=O)(=O)N1CCC(Nc2cccnc2)C1 (centres undefined)	2%
CN1CCN(CCCNC(=O)c2c(OCC3CC3)cc(=O)n3c2CCCCC3)CC1	-7%
COCCN1C(=O)CS(=O)C12CCN(C(=O)C1(c3ccc(OC)cc3)CC1)CC2 (centres undefined)	-8%
CC1=NN(CC(=O)N2CCN(Cc3ncc[nH]3)CC(C(=O)O)C2)CC1 (centres undefined)	2%
CC(C)(CC(=O)O)CC(=O)N1C[C@@H]2C[C@H](C1)c1ccc(-c3cccc(C(F)(F)F)c3)c(=O)n1C2	5%
CCNc1cc(N2CCC(CCC(=O)NCC3CC3)CC2)ncn1	-4%
CCNC(=O)N1CCC(c2noc(-c3ccccc3)n2)C1 (centres undefined)	7%
CC(C)NC(=O)N1CCOc2ccc(CCC(=O)NC3CCS(=O)(=O)C3)cc2C1 (centres undefined)	17%
Cc1nnc([C@H]2CCN(Cc3ccco3)C2)o1	0%[70.6 µM]
O=C(NCCN1CCOCC1)c1ccc(-c2ccc(N3CCCCCC3)nc2)cc1	-24%
Cc1ccc(S(=O)(=O)NC[C@H]2O[C@H](Cc3cc(COc4ccccc4)on3)CC[C@@H]2O)cc1	-24%
COCCn1ccnc1C1CCN(C(=O)c2cccc(-n3cccn3)c2)CC1	3%
COc1ccc(C(=O)N2CCC(C(NC(=O)c3ccccc3C)C(=O)NC(C)C(C)C)CC2)cc1 (centres undefined)	-1%
CC(C)(C)CC(=O)NCCc1noc(-c2ccccc2)n1	3%
CCN1C(=O)N(Cc2cccc(OC)c2)C(=O)C12CCN(Cc1nc3ccccc3n1C)CC2	-2%
Cc1noc([C@@H]2CN(Cc3ccoc3)C[C@H]2CO)n1	4%
O=C(NCCc1ccccc1)N(C1CCOCC1)C1CCN(Cc2ccccc2)CC1	3%
CC(C)NC(=O)N1CCNC[C@@H]1C(=O)N[C@@H](CC1CCCCC1)C(N)=O	3%[70.6 µM]
O=C(C1CCC(O)CC1)N1CCCC(CCc2ccccc2C(F)(F)F)C1 (centres undefined)	-2%
COc1ccc(Nc2ccc3c(n2)CN(Cc2nc4ccccc4s2)C(=O)CO3)cn1	?
CN1C(=O)C(CC(=O)NCCc2c[nH]c3ccccc23)=C2CCCCC21 (centres undefined)	0%
Cn1c(CO[C@H]2CN(Cc3cnc4ccccc4c3)C[C@H]2F)nc2ccccc21	?
CCn1cc(S(=O)(=O)N2C[C@@H](Oc3ccccc3)C[C@@H]2C(=O)N2CCOCC2)cn1	10%
Cc1ccc(-c2[nH]ncc2CN2CC[C@@](C)(O)[C@H](N3CCCC3)C2)cc1	3%

An excerpt from above in order of the NPR1 antag value, ascending.
structure,NPR1 antag
O=C(NCCN1CCOCC1)c1ccc(-c2ccc(N3CCCCCC3)nc2)cc1,-24%
CN1C(=O)C(CC(=O)NCCc2c[nH]c3ccccc23)=C2CCCCC21 (centres undefined),0%
CC(C)(C)CC(=O)NCCc1noc(-c2ccccc2)n1,3%
Cc1noc([C@@H]2CN(Cc3ccoc3)C[C@H]2CO)n1,4%

The listing picks up, starting 4 compounds before the break.
SMILES	NPR1 antag
CN1C(=O)C(CC(=O)NCCc2c[nH]c3ccccc23)=C2CCCCC21 (centres undefined)	0%
Cn1c(CO[C@H]2CN(Cc3cnc4ccccc4c3)C[C@H]2F)nc2ccccc21	?
CCn1cc(S(=O)(=O)N2C[C@@H](Oc3ccccc3)C[C@@H]2C(=O)N2CCOCC2)cn1	10%
Cc1ccc(-c2[nH]ncc2CN2CC[C@@](C)(O)[C@H](N3CCCC3)C2)cc1	3%
CN1CCCCCCN(C(=O)CCC2CCCC2)[C@H]2CCC[C@H]2C1=O	-1%
COc1ccc(C2Cn3cnc(C(=O)N4CCC(C(=O)Nc5cccc(C)c5)CC4)c3CO2)cc1 (centres undefined)	-8%
O=C(c1ccccc1)N1CCC2(CC1)NC(=O)N(Cc1ccccc1)C2=O	-2%
COc1ccc(CCN2Cc3cc(NC(=O)c4ccc(OC)cc4)ccc3OC(C)C2=O)cc1 (centres undefined)	1%
Cc1ccc(C(=O)N2CCCC3(C2)Nc2cccnc2NC3=NCc2ccccc2)cn1 (centres undefined)	0%
Cc1ccc(S(=O)(=O)N2CCN(C3CCN(Cc4ccccn4)C3=O)CC2)c(C)c1 (centres undefined)	3%
